Sa RN4220 lethal: growth inhibition of S. aureus RN4220, primary screen, OD600. 16 h. inhibition, % (no concentration beside the values). hit rate 0.33% among 330,000. AID 1259311, 2017;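 active = z-score of -3 or lower and OD600 up to 0.18 on both plates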;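 note: plate controls were untreated cells for no effect and reference antibiotic for full effect; stock transfer was 100 nL into about 80 µL; one replicate is shown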
Mtb hypoxia rep: PubChem AID 1159583 | M. tuberculosis hypoxia-regulated fluorescent reporter, fluorescence | fluorescence inhibition, % (concentration not given with the values) | hit rate 0.1% among 300,000;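 active = 35 to 45% if threefold the growth effect, above 45% if 1.5-fold the growth effect; inactive = the rest, general growth blockers included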;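 note: wells of about 50 µL received 100 nL stock; 0% = vehicle wells and 100% = reference inhibitor wells; whole bacteria with a GFP reporter of the hypoxia response; strong numbers were not always called active; many hits fall short of the cut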
Sa ugtP lethal: growth inhibition of ugtP-null S. aureus, primary screen, RN4220 ugtP deletion, OD600; 16 h; some inactives read as strong as hits; growth inhibition, % (concentration not given with the values); hit rate 0.54% among 330,000; AID 1259309, 2017;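 active = z-score under -3 and OD600 up to 0.15 on both plates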;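 note: plate controls were untreated wells for no effect and antibiotic for full effect; wells of about 80 µL received 100 nL stock; the first replicate is given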
Autofluor counter: flagged as autofluorescent in microsphere protease counterscreen. hit rate 3.1% among 360,000. fluorescence intensity (no concentration beside the values). compound autofluorescence counterscreen, microsphere flow cytometry; stronger effect = higher value. AID 624483;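 active = at least 3 SD above the mean of all compounds, about 16000 in these data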;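 note: 100 nL of 1 mM stock went into each well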
BJeLR lethal: MLPCN primary cell-based screen for lethality selective to Ras in HRASV12 cells; AID 1554, 2009; hit rate 0.17% among 300,000; inhibition, % (concentration not given with the values); BJeLR (HRASV12) viability, CellTiter-Glo ATP luminescence, 48 h; reference of the scale not given here;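 active = replicate mean above 50%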;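 note: 50 nL library stock added to about 25 µL; numbers are from one replicate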
PrP UTR inh: inhibition of PrP 5' UTR reporter expression; cell-based PrP 5' UTR mRNA reporter, plate reader; inhibition, % (no concentration beside the values); hit rate 0.35% among 340,000; AID 488862, 2010;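 active = every replicate at 50% or more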;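 note: 0 = median of the neutral control wells; tested in H4 reporter cells; numbers are from one replicate; inactives centre near -14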
Mtb hypoxia rep growth: also measured in Mtb hypoxia rep; calls as there; growth inhibition, %; measured here: M. tuberculosis growth (absorbance);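 0% = vehicle and 100% = reference antibiotic; read after six days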
* hit, by the source's call; · = not tested or not shown.

Below each SMILES – Sa RN4220 lethal | Mtb hypoxia rep | Mtb hypoxia rep growth | Sa ugtP lethal | Autofluor counter | BJeLR lethal | PrP UTR inh
> Cc1cc(-c2ccc(C)c(S(=O)(=O)N3CCN(c4ccc(F)cc4)CC3)c2)on1
→ 0.2 | -1 | 2 | 3 | 6312 | 0 | -20
> C[C@]12CCC3c4ccc(O)cc4C(=O)CC3C1CCC2O (stereo partly drawn)
→ 7.1 | 14 | 4 | -1 | · | · | ·
> Cc1ccc(S(=O)(=O)NC(CC(=O)NCC2CCCO2)c2ccco2)cc1 (stereo not drawn)
→ -2.2 | · | · | 6 | 3055 | -8 | -11
> O=C(Nc1nc2c(cc3c4c(cccc42)CC3)s1)c1ccccc1Cl
→ -4.8 | 10 | 0 | -10 | 2024 | -6 | -7
> COCCN(Cc1cn[nH]c1-c1ccc2cc(OC)ccc2c1)C(C)C
→ 6.5 | 17 | 1 | 19 | 4025 | -5 | -33
> CCOC(=O)C1CCN(C2=C(NS(=O)(=O)c3ccc(Br)cc3)C(=O)c3ccccc3C2=O)CC1
→ -8.1 | -2 | 6 | -32 | 5084 | 10 | -12
> Cc1cccc(N=C2CSC(=O)N2)c1
→ 2.7 | 3 | 7 | 3 | 4905 | 34 | -13
> COc1cc(CCC(=O)O)on1
→ 5.7 | 4 | 9 | 2 | 3555 | -1 | -10
> CC1CCCC(NC(=O)CSc2ncccn2)C1C (stereo not drawn)
→ 3.2 | 10 | 0 | 6 | 3186 | · | -31
> CCc1nnc(NC(=O)c2ccc(S(=O)(=O)N3CCN(Cc4ccccc4)CC3)cc2)s1
→ 3.4 | 2 | 4 | 11 | 7019 | 8 | -34

Overlap with the part before: 2 compounds, then new ones.
Below each SMILES – Sa RN4220 lethal | Mtb hypoxia rep | Mtb hypoxia rep growth | Sa ugtP lethal | Autofluor counter | BJeLR lethal | PrP UTR inh
> CC1CCCC(NC(=O)CSc2ncccn2)C1C (stereo not drawn)
→ 3.2 | 10 | 0 | 6 | 3186 | · | -31
> CCc1nnc(NC(=O)c2ccc(S(=O)(=O)N3CCN(Cc4ccccc4)CC3)cc2)s1
→ 3.4 | 2 | 4 | 11 | 7019 | 8 | -34
> O=C(Oc1cccc(Nc2ncnc3ccccc23)c1)c1ccccc1Cl
→ 3.2 | 8 | 3 | 1 | 4670 | -2 | -14
> COc1ccc(/C(O)=C2/C(=O)C(=O)N(CC3CCCO3)C2c2cccc(OC)c2)cc1 (stereo not drawn)
→ 1.2 | -5 | 3 | 5 | 8113 | -2 | -14
> O=C(Cc1ccc(Br)cc1)Nc1ccccc1Cl
→ 3.4 | 0 | 17 | 2 | 2436 | -17 | -9
> O=C1C(=O)N(CC(=O)N2CCCC2)c2ccccc21
→ 1.0 | -6 | -4 | -1 | 4194 | 0 | -25
> Cc1cc(Nc2ccccc2)nc(-c2ccccc2O)n1
→ 65 | · | · | 80 | 4866 | 0 | -31
> Cc1ccc(C(=O)Nc2ccc(N3CCCCC3)cc2)cc1
→ 3.3 | 4 | 2 | 0 | 2994 | · | -32
> Cc1nc2ccc(NS(=O)(=O)c3ccc(F)c(F)c3)cc2s1
→ 7.4 | 15 | 26 | 2 | 2934 | · | -10
> CCOC(=O)N1CCN(C(=O)c2ccc(S(=O)(=O)c3ccc(C)cc3)c(NC(C)=O)c2)CC1
→ 3.6 | 11 | 6 | 0 | 2924 | 0 | -4
> Cc1ccc(/C=C2\C(=O)ON=C2c2ccccc2)o1
→ 3.6 | 1 | 1 | 1 | 4636 | 0 | -19
> COc1cc(S(=O)(=O)NCCN2CCOCC2)c(OC)cc1Cl
→ 1.6 | · | · | 4 | 3370 | 1 | -22
> c1ccc(-c2csc3ncnc(N4CCN(Cc5ccc6c(c5)OCO6)CC4)c23)cc1
→ 3.1 | 6 | 7 | 5 | 3621 | 10 | -27
> CCOC(=O)c1sc2nc(N3CCCC3)c3c(c2c1N)CC(C)(C)OC3
→ 4.1 | 9 | 10 | 11 | 6523 | 14 | 15
> O=C(CN1CCN(c2ccc([N+](=O)[O-])cc2)CC1)c1ccccc1
→ 10 | 11 | 4 | -1 | 4132 | 12 | -15
> C(#Cc1ccc2c(c1)COc1c3ccccc3nn1-2)c1ccccc1
→ 1.7 | -1 | 6 | 9 | 3577 | 7 | -70
> O=C(CSc1nnc2ccccn12)Nc1ccc(N2CCOCC2)cc1
→ 2.0 | -2 | 0 | 1 | 5425 | · | -1
> Cc1ccsc1/C=N/n1c(C2CCCCC2)n[nH]c1=S
→ · | · | · | · | 2002 | -2 | -15
> O=C(c1ccco1)N1c2ccccc2Sc2ccccc21
→ 3.6 | · | · | 7 | 3097 | 0 | -3
> COc1ccc(S(=O)(=O)N(C)CC(=O)Nc2ccccc2SC)cc1
→ 4.5 | 12 | 11 | 2 | 3947 | -3 | -10
> NC(=O)C1CCN(C(=O)COc2ccc(Nc3ccccc3)cc2)CC1
→ 4.6 | 10 | 7 | 0 | 4470 | -5 | -30
> Cc1c(C)c2ccc(OCC(=O)N3CCC(C(=O)O)(c4ccccc4)CC3)cc2oc1=O
→ 2.8 | · | · | 5 | 5555 | -1 | -11

Nine successive entries out of the list so far, quoted:
Below each SMILES – Sa RN4220 lethal | Mtb hypoxia rep | Mtb hypoxia rep growth | Sa ugtP lethal | Autofluor counter | BJeLR lethal | PrP UTR inh
> c1ccc(-c2csc3ncnc(N4CCN(Cc5ccc6c(c5)OCO6)CC4)c23)cc1
→ 3.1 | 6 | 7 | 5 | 3621 | 10 | -27
> CCOC(=O)c1sc2nc(N3CCCC3)c3c(c2c1N)CC(C)(C)OC3
→ 4.1 | 9 | 10 | 11 | 6523 | 14 | 15
> O=C(CN1CCN(c2ccc([N+](=O)[O-])cc2)CC1)c1ccccc1
→ 10 | 11 | 4 | -1 | 4132 | 12 | -15
> C(#Cc1ccc2c(c1)COc1c3ccccc3nn1-2)c1ccccc1
→ 1.7 | -1 | 6 | 9 | 3577 | 7 | -70
> O=C(CSc1nnc2ccccn12)Nc1ccc(N2CCOCC2)cc1
→ 2.0 | -2 | 0 | 1 | 5425 | · | -1
> Cc1ccsc1/C=N/n1c(C2CCCCC2)n[nH]c1=S
→ · | · | · | · | 2002 | -2 | -15
> O=C(c1ccco1)N1c2ccccc2Sc2ccccc21
→ 3.6 | · | · | 7 | 3097 | 0 | -3
> COc1ccc(S(=O)(=O)N(C)CC(=O)Nc2ccccc2SC)cc1
→ 4.5 | 12 | 11 | 2 | 3947 | -3 | -10
> NC(=O)C1CCN(C(=O)COc2ccc(Nc3ccccc3)cc2)CC1
→ 4.6 | 10 | 7 | 0 | 4470 | -5 | -30

Next compounds.
Below each SMILES – Sa RN4220 lethal | Mtb hypoxia rep | Mtb hypoxia rep growth | Sa ugtP lethal | Autofluor counter | BJeLR lethal | PrP UTR inh
> COc1ccccc1N1CCN(Cc2cc(C)c(C)cc2O)CC1
→ 1.6 | 2 | 4 | 3 | 4690 | -3 | -15
> CCN1CC(=NS(=O)(=O)N=C2CN(CC)C(=O)N2CC)N(CC)C1=O
→ 10 | 6 | 6 | 3 | · | · | ·
> CC1CCCC(C)N1C(=O)CN1C(=O)NC2(CCOc3ccccc32)C1=O (stereo not drawn)
→ 1.2 | 3 | 8 | 1 | · | · | -20
> O=C(O)Cn1cnc2c(OCc3ccccc3)ncnc21
→ 0.9 | -2 | -5 | 5 | 3522 | · | 42
> Cc1ccc(C(=O)COC(=O)CN2C(=O)C3C4C=CC(C4)C3C2=O)cc1[N+](=O)[O-] (stereo not drawn)
→ -2.3 | -1 | 7 | 1 | 3532 | 7 | -19
> c1ccc2c(c1)Sc1ccccc1-n1cnnc1-2
→ 3.9 | 9 | 12 | 4 | 4689 | 13 | -15
> O=c1cnnc(N/N=C/c2ccccn2)[nH]1
→ · | · | · | · | 4689 | 63* | 25
> O=C(NCC1COc2ccccc2O1)c1cccc(S(=O)(=O)NCc2ccccc2)c1 (stereo not drawn)
→ -3.3 | 3 | -5 | 2 | 6027 | -10 | -14
> CCCCCCc1ccc(N2CC(Cc3ccccc3)C(CC(=O)Nc3ccccc3)C2=O)cc1 (stereo not drawn)
→ -0.9 | 5 | -1 | 5 | · | · | ·
> O=C(CSc1nnc(-c2ccccc2)o1)c1ccc2c(c1)OCCO2
→ -0.5 | · | · | -4 | 2117 | 2 | -9
> Cc1cc(C)c(N(CC(=O)NCc2ccccc2)C(=O)c2csnn2)c(C)c1
→ -5.1 | -1 | 6 | 11 | 5056 | -4 | -17
> CC(=O)c1ccc(OCc2ccc(Oc3c(Cl)cccc3[N+](=O)[O-])cc2)cc1
→ 6.6 | 11 | 7 | 8 | 2986 | -11 | -10
> CN(C(=O)CSc1nnc(-c2ccco2)o1)C1CCCCC1
→ -6.6 | 25 | 12 | -1 | 2415 | -3 | -22
> CC(C(=O)O/N=C(\N)c1ccccn1)c1ccc([N+](=O)[O-])cc1 (stereo not drawn)
→ 6.4 | 9 | 5 | 5 | 5995 | 5 | -12
> COC(=O)c1nn(-c2ccccc2)c(Sc2ccccc2)c1C=NO
→ 16 | 2 | 9 | 76 | · | · | ·
> Cn1c(NC(=O)/C=C\c2ccccc2)cc(=O)n(C)c1=O
→ · | · | · | · | 2200 | -2 | -58
> CCOCc1nnc(NC(=O)c2ccc(OC)cc2)s1
→ 3.7 | · | · | 8 | 3311 | -8 | -18
> CCCCc1nnc(NC(=O)c2ccc(N3CCCC3=O)cc2)s1
→ 5.1 | 2 | -4 | -1 | 3943 | 4 | -31
> Cc1ccc(-c2[nH]n3c(=O)c4c(nc3c2C)CCCC4)cc1
→ 1.6 | 17 | 8 | -4 | 9098 | -4 | -26
> Cc1noc(C)c1S(=O)(=O)Nc1ccc(C(=O)NC2CCCCC2)cc1
→ 8.8 | 2 | 2 | 8 | 3628 | 10 | -17
> COC(=O)c1ccc(CN2CCCC(C(=O)c3ccccc3OC)C2)cc1 (stereo not drawn)
→ 4.6 | -1 | 11 | 9 | 3997 | 1 | -12
> O=C1CCN(CCc2ccccc2)CCN1[C@H](CSc1ccccc1)c1ccccc1
→ · | · | · | · | 4498 | -2 | -114
> C/C(=N\Nc1ccc(S(=O)(=O)Nc2ccc(Cl)cc2)cc1[N+](=O)[O-])c1ccc(N2CCOCC2)cc1
→ · | · | · | · | 7677 | -4 | -2
> Cc1cc(C(=O)Nc2ccccc2C)c2ccccc2n1
→ 2.4 | -2 | 4 | 1 | 4309 | -13 | -4
> O=C(CBr)c1ccc([N+](=O)[O-])c(CS(=O)(=O)c2ccc(Cl)cc2)c1
→ · | · | · | · | 4216 | 1 | -8
> Cc1nc(-c2ccccc2)sc1C1(C)CC(c2ccc(OC(F)(F)F)cc2)=NO1 (stereo not drawn)
→ -1.2 | -2 | 10 | 0 | 4142 | · | -5
> COc1cc(CN2CCC(C(=O)NCCC(C)C)CC2)ccc1OCc1ccccc1
→ -4.1 | 9 | 6 | -1 | 4229 | 8 | -39
> O=[N+]([O-])c1cccnc1NCCNc1ncc(C(F)(F)F)cc1Cl
→ 1.2 | · | · | -10 | 2782 | -4 | -119
> Nc1nnn(CC(=O)N/N=C/c2cccc(Cl)c2)n1
→ · | · | · | · | 3170 | -5 | -14
> CC(C)OC(=O)Cc1ccccc1
→ 4.5 | 10 | 7 | 4 | 5590 | · | -5
> COc1ccc(NC(=O)c2ccco2)cc1NC(=O)COc1ccccc1[N+](=O)[O-]
→ 3.0 | 2 | 4 | 12 | 3901 | 10 | -28
> O=C(NN=Cc1ccc([N+](=O)[O-])s1)C1COc2ccccc2O1 (stereo not drawn)
→ 9.4 | 5 | 7 | 1 | · | · | ·
> COCC1CCCN(C(=O)c2cc(COc3cncc(Cl)c3)on2)C1 (stereo not drawn)
→ -3.1 | -6 | 6 | -5 | 5809 | -5 | -33
> CCOc1ccc(CCNC(=O)Cc2ccc(S(=O)(=O)N3CCOCC3)s2)cc1OCC
→ 4.8 | 11 | 0 | 8 | 5713 | 6 | -2
> CC1CN(c2cc([N+](=O)[O-])ccc2Cl)CC(C)N1 (stereo not drawn)
→ -0.5 | 3 | 1 | 3 | 2329 | · | -34
> Cc1cc(N2CCC(C(N)=O)CC2)nc(-c2ccccc2)n1
→ 0.2 | · | · | 1 | 2812 | 8 | -17
> O=C(N1CCOCC1)C(F)(F)C(=O)N1CCOCC1
→ -3.4 | · | · | -8 | 3688 | -7 | -1
> COc1ccc(C(=O)ON=C(N)Cc2ccc(Cl)cc2)cc1OC
→ -5.1 | 19 | 9 | 0 | · | · | ·
> Cc1ccc(C=NN2CCN(Cc3ccc(C)cc3)CC2)cc1
→ 0.6 | 0 | 0 | 1 | · | · | ·
> COc1ccccc1NC(=O)CN(c1ccc(C)cc1)S(=O)(=O)c1c(C)n[nH]c1C
→ -6.7 | · | · | 0 | 4228 | 0 | -5

Bioassay records from PubChem BioAssay.
